Source: PubChem BioAssay
BJeLR viability = MLPCN primary cell-based screen for lethality selective to Ras in HRASV12 cells; BJeLR (HRASV12) viability, CellTiter-Glo ATP luminescence, 48 h; reference of the scale not given here; inhibition, % (concentration not given with the values); 0.17% of 300,000 active;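 active = replicate mean above 50%; inconclusive = above 50% but judged a plate artefact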;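 note: 50 nL library stock added to about 25 µL; numbers are from one replicate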
PrP 5UTR inh = inhibition of PrP 5' UTR reporter expression; cell-based PrP 5' UTR mRNA reporter, plate reader; inhibition, % (test concentration not listed); 0.35% of 340,000 active; AID 488862, 2010;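 active = every replicate at 50% or more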;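 note: 0 = median of the neutral control wells; tested in H4 reporter cells; numbers are from one replicate; inactives centre near -14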
Bead autofluor = flagged as autofluorescent in microsphere protease counterscreen. 3.1% of 360,000 active. compound autofluorescence counterscreen, microsphere flow cytometry; active compounds read high. fluorescence intensity (no concentration beside the values);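 active = at least 3 SD above the mean of all compounds, about 16000 in these data; inconclusive = too few beads counted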;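 note: 100 nL of 1 mM stock went into each well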
Sa ugtP lethal = growth inhibition of ugtP-null S. aureus, primary screen, RN4220 ugtP deletion, OD600; 16 h; some inactives read as strong as hits; growth inhibition, % (no concentration beside the values); 0.54% of 330,000 active;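 active = z-score under -3 and OD600 up to 0.15 on both plates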;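 note: plate controls were untreated wells for no effect and antibiotic for full effect; wells of about 80 µL received 100 nL stock; the first replicate is given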
Mtb hypoxia rep = PubChem AID 1159583 | M. tuberculosis hypoxia-regulated fluorescent reporter, fluorescence | fluorescence inhibition, % (test concentration not listed) | 0.1% of 300,000 active;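 active = 35 to 45% if threefold the growth effect, above 45% if 1.5-fold the growth effect; inactive = the rest, general growth blockers included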;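 note: wells of about 50 µL received 100 nL stock; 0% = vehicle wells and 100% = reference inhibitor wells; whole bacteria with a GFP reporter of the hypoxia response; strong numbers were not always called active; many hits fall short of the cut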
RN4220 kill = growth inhibition of S. aureus RN4220, primary screen, OD600; 0.33% of 330,000 active; inhibition, % (test concentration not listed); 16 h;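 active = z-score of -3 or lower and OD600 up to 0.18 on both plates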;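 note: plate controls were untreated cells for no effect and reference antibiotic for full effect; stock transfer was 100 nL into about 80 µL; one replicate is shown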
Mtb hypoxia rep growth = recorded beside Mtb hypoxia rep, whose call it bears; growth inhibition, %; measured here: M. tuberculosis growth (absorbance);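 0% = vehicle and 100% = reference antibiotic; read after six days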
* hit, by the source's call; ? = inconclusive; · = no result given.

SMILES	BJeLR viability	PrP 5UTR inh	Bead autofluor	Sa ugtP lethal	Mtb hypoxia rep	Mtb hypoxia rep growth	RN4220 kill
O=C(COc1ccc2ccc(=O)oc2c1)N1CCN(c2ccccc2)CC1	-1	-16	4116	4	1	14	6.6
Cc1cc(C)n(-c2ccc(C(=O)OCC(=O)Nc3ccccc3F)cc2)n1	·	-6	?	3	-3	6	-0.4
CCS(=O)(=O)CCn1c([N+](=O)[O-])cnc1C	-2	-13	4441	-5	-1	10	1.6
Cc1noc(C)c1CSc1ccc(Br)cc1	9	-14	10395	13	3	4	8.4
Cc1cccc(C=NNC(=O)c2ccccc2-n2cccc2)c1	·	·	·	17	8	9	13
O=C(CCNC(=O)c1ccc([N+](=O)[O-])cc1)Nc1cccc(S(=O)(=O)N2CCCCC2)c1	1	-6	?	-6	-10	-11	-3.0
CC(Oc1cccc2cccnc12)C(=O)N/N=C/c1ccccc1 (configuration not stated)	-15	-16	4317	·	·	·	·
Cc1nc(CCl)cc(=O)[nH]1	2	-23	5646	-3	6	0	-3.4
O=C(O)CC(c1ccc(Cl)cc1)N1Cc2ccccc2C1=O (configuration not stated)	-3	-4	3855	4	-5	5	2.5
O=C(O)CNS(=O)(=O)Cc1ccccc1	-8	-3	6247	2	5	0	4.5
COc1ccc(Oc2nc(C)nc3c2oc2ccccc23)cc1	-2	0	9507	-5	7	8	15
CC(C)CC(c1nnnn1C1CCCC1)N1CCN(C(=O)c2ccco2)CC1 (configuration not stated)	4	-9	3638	4	·	·	4.9
O=C(Nc1ccc(F)cc1)C1(S(=O)(=O)c2ccc(Cl)cc2)CC1	-8	-7	5948	1	-4	-2	4.6
CCOC(=O)C1=C(COC(=O)Cc2ccccc2)NC(=O)NC1C (configuration not stated)	14	-9	5339	6	2	-3	13
COc1ccc(-n2c(SCC#N)nc3c(sc(=S)n3-c3ccccc3)c2=O)c(OC)c1	2	8	3082	2	-1	-4	-0.6

The closing 5 compounds of the part above open the next one.
SMILES	BJeLR viability	PrP 5UTR inh	Bead autofluor	Sa ugtP lethal	Mtb hypoxia rep	Mtb hypoxia rep growth	RN4220 kill
COc1ccc(Oc2nc(C)nc3c2oc2ccccc23)cc1	-2	0	9507	-5	7	8	15
CC(C)CC(c1nnnn1C1CCCC1)N1CCN(C(=O)c2ccco2)CC1 (configuration not stated)	4	-9	3638	4	·	·	4.9
O=C(Nc1ccc(F)cc1)C1(S(=O)(=O)c2ccc(Cl)cc2)CC1	-8	-7	5948	1	-4	-2	4.6
CCOC(=O)C1=C(COC(=O)Cc2ccccc2)NC(=O)NC1C (configuration not stated)	14	-9	5339	6	2	-3	13
COc1ccc(-n2c(SCC#N)nc3c(sc(=S)n3-c3ccccc3)c2=O)c(OC)c1	2	8	3082	2	-1	-4	-0.6
CC1CC(C)CN(c2ncc3c(n2)CC(c2ccccc2)CC3=O)C1 (configuration not stated)	6	-13	3358	21	-3	11	9.1
O=C1OC(Sc2ccccc2)(c2ccccc2)c2ccccc21 (configuration not stated)	·	-10	4036	-7	-4	7	-2.5
CCc1ccc(-c2csc(NC(=O)C3CCCO3)c2C(=O)OC(C)C)cc1 (configuration not stated)	2	-7	2718	7	·	·	-13
Cc1cc(Cl)ccc1OC(C)C(=O)NN1C(=O)c2ccccc2C1=O (configuration not stated)	-4	-20	3781	4	14	10	3.2
Cc1noc(C)c1COc1ccc(C(=O)NCc2ccccn2)cc1	2	-22	4655	6	·	·	-0.4
O=C(Cc1cc(=O)oc2cc(O)ccc12)N[C@@H](Cc1c[nH]c2ccccc12)C(=O)O	-2	-23	3796	12	0	11	-1.4
CN(Cc1ccccc1)C(=O)c1cc2cc(F)ccc2[nH]1	3	-14	3566	11	4	8	3.8
CCN(CC)CCN1C(=O)C(=O)/C(=C(/O)c2ccc(C)cc2)C1c1ccncc1 (configuration not stated)	2	·	·	0	-2	-6	-12
Cc1c(N=C2N=C(NC(=O)NC(C)(C)C)c3ccccc32)c(=O)n(-c2ccccc2)n1C	0	-2	4913	2	15	11	6.0
O=C(N/N=C/c1ccc(Br)cc1)c1ccc(F)cc1	0	12	1907	·	·	·	·
O=C(Nc1ccc(NC(=O)c2cccs2)cc1)c1ccc2c(c1)OCO2	-6	1	4584	-6	-9	5	5.8
COc1ccc(OC)c(N2C(=O)CCCC2=O)c1	-15	-16	4303	-1	2	-7	5.7
O=C(COC(=O)c1ccc(S(=O)(=O)N2CCCCCC2)cc1)NCc1ccc(Cl)cc1	·	-9	3483	3	6	-3	3.1
Cc1ccc(C(=O)NC(=S)N2CCN(C)CC2)cc1	-4	·	10844	-1	-16	0	-1.4
CCc1ccccc1NC(=O)CNC(=O)CNC(=O)Cc1ccccc1	·	-9	5041	1	9	-6	-0.1
Nc1c(-c2nn[nH]n2)cnn1-c1cc(Cl)cc(Cl)c1	0	-11	4170	5	-15	-12	6.3
CCCn1c(C(C)Nc2nc(-c3ccc(Cl)c([N+](=O)[O-])c3)cs2)nc2ccccc21 (configuration not stated)	1	-18	4325	-4	8	-4	-11
COc1ccc(S(=O)(=O)N(C)C)cc1NC(=O)c1ccc2c(c1)NC(=O)C(C)S2 (configuration not stated)	·	12	3637	4	5	4	2.9
NC(=NOC(=O)c1ccc2ccccc2c1)c1cccc([N+](=O)[O-])c1	·	·	·	-12	3	9	3.3
COc1ccc(C(CNC(=O)COc2ccc(Cl)c(C)c2)N2CCCCC2)cc1 (configuration not stated)	0	1	5688	-2	13	26	1.0
CCOc1ccc(N(Cc2nnc3n2CCCCC3)C(=O)Nc2cccc(C)c2)cc1	-9	-5	4605	1	3	-3	2.9
CCOC(=O)C(C)=NNC(=O)c1ccc([N+](=O)[O-])cc1	·	·	·	-8	-4	-1	2.0
O=C(COc1ccc(C=NNC(=O)CSCc2ccc([N+](=O)[O-])cc2)cc1)NCc1ccco1	·	·	·	0	-13	2	-3.7
Cc1cc([N+](=O)[O-])ccc1NC(=O)CN1C2CCC1CC(NC(=O)NC13CC4CC(CC(C4)C1)C3)C2 (configuration not stated)	18	-9	3193	-6	5	29	-16
O=C(O)CC(C(=O)OCCOc1ccccc1)N1CCOCC1 (configuration not stated)	0	-10	4375	7	7	5	3.9
COC(=O)c1ccc2ncccc2c1	-11	-17	4045	5	6	6	5.2
CCOc1ccccc1C(=O)NCc1ccc2c(c1)OCO2	-1	-46	10732	2	8	11	1.0
NS(=O)(=O)c1ccc(Nc2nc(-c3cccc([N+](=O)[O-])c3)cs2)cc1	4	1	4908	2	8	15	8.9
CCCCCCCCCn1ccc(=N)cc1	46	4	·	100*	13	10	-1.3
Nc1nc2ccccc2n1C(=O)c1cccs1	5	-68	4248	·	·	·	·
COc1ccc(CNC(=O)CN=C2NC(=O)C(c3ccccc3)(c3ccccc3)N2)cc1	1	-23	11223	-3	3	1	2.1
CC(=O)OC(C)C(=O)NS(=O)(=O)c1ccc(C)cc1 (configuration not stated)	-2	-11	1993	·	·	·	·
COc1cccc(N2CCN(C(=O)NC3CCCCC3)CC2)c1	0	-22	2457	-6	5	12	-17
COc1cccc(CN2CCSCC2)c1OC	6	-14	3808	5	-4	-4	3.5
CSc1ncc(Cl)c(C(=O)Nc2ccc(C)c(C)c2)n1	1	·	4106	-14	-4	2	-3.0
O=C(Oc1ccc(/C=N/n2cnnc2)cc1)c1cccc([N+](=O)[O-])c1	3	-13	3300	·	·	·	·
O=C(NCc1ccccc1)C(=O)NCC1OCCN1S(=O)(=O)c1ccc(Br)cc1 (configuration not stated)	-8	-9	4168	6	2	0	2.4
O=C(O)Cn1c(=O)c(F)cn(C2CCCO2)c1=O (configuration not stated)	-1	7	3802	10	12	9	5.9
COc1ccc(NC(C)=O)cc1NC(=O)CSc1nnc(-c2ccccn2)n1C	1	0	9961	5	9	2	5.0
CCC1(O)CC(C(=O)OC)=NN1C(=O)c1ccccc1 (configuration not stated)	-7	-2	5704	-2	8	14	4.4
CC(=O)NCCc1nc(-c2ccc(Cl)cc2)no1	-3	-6	3853	2	3	-2	4.9
C=CCNC(=O)COCc1cc(-c2ccc3c(c2)OCO3)on1	8	-20	4283	2	6	3	1.1
CCc1cc2c(=O)nc3n(c2s1)Cc1ccccc1/C3=C(/O)c1cccc([N+](=O)[O-])c1	-1	-18	10824	1	5	14	0.9
CC(=O)N1CCN(c2ccc(C(N)=O)cc2[N+](=O)[O-])CC1	6	-13	5044	4	3	5	8.5
Cn1c(=O)c2c(nc(SCC(=O)NCc3ccc4c(c3)OCO4)n2Cc2ccc(Cl)cc2)n(C)c1=O	-12	14	6636	1	3	-10	1.2
CC1(C)OC(=O)C(=CNc2ccccc2)C(=O)O1	-1	-14	18882*	1	-1	-1	4.7
O=C(COC(=O)c1ccc(S(=O)(=O)N2CCCC2)cc1)Nc1ccccc1	·	-6	3928	3	3	5	0.5
CCOc1cc(Br)c(COc2ccc(C)nc2[N+](=O)[O-])cc1OCC	-8	-1	3582	54	2	4	3.0
COc1ccc(N2C(=O)C3C4C=CC(C4)C3C2=O)c(OC)c1 (configuration not stated)	-12	-13	22210*	4	3	10	0.5
CCn1c(N)c(C(=O)NC)sc1=S	-7	2	3260	3	6	7	4.9
Cc1cc(C(=O)COC(=O)c2ccco2)c(C)n1Cc1ccco1	2	27	3442	0	2	-5	5.0
CC(=O)Nc1ccc(S(=O)(=O)NCC(=O)NNC(=O)c2csc(N3CCOCC3)n2)cc1	14	-37	5427	1	9	5	5.4
COc1cc(NC(=O)CSc2ccccc2)c(C(=O)O)cc1OC	6	-16	2383	4	10	1	4.3
O=C(Nc1ccon1)c1nc[nH]c1C(=O)N1CCc2ccccc2C1	·	9	3984	1	15	14	15
CCCOc1ccc(CN(CCC#N)C(=S)NC(=O)c2ccccc2)cc1	-15	-9	2087	2	16	2	-3.7
CC(=O)NC(CC(=O)N1CCCC1)c1ccccc1 (configuration not stated)	-8	-18	5677	3	6	4	2.3
Cc1cc(C)c(C#N)c(SCS(=O)c2ccc(C(C)(C)C)cc2)n1 (configuration not stated)	-2	-24	8258	4	17	6	3.3
COc1ccc(N(CC(=O)N/N=C/c2cccs2)S(=O)(=O)c2ccc(OC)c(OC)c2)cc1	-12	-70	8456	·	·	·	·
O=C(O)CC/C(=N\NC(=O)CNC(=O)/C=C/c1ccccc1)c1ccccc1	6	-17	3674	·	·	·	·
CCCCN(CC(=O)NCCOC)C(=O)Cn1nnc2ccccc21	-5	-18	2005	10	10	6	0.6
S=c1[nH]nc(Cc2ccccc2)n1-c1ccccc1	4	-18	19172*	-6	6	17	4.2

Record cards, as listed above.
COc1ccc(N(CC(=O)N/N=C/c2cccs2)S(=O)(=O)c2ccc(OC)c(OC)c2)cc1 is listed with BJeLR viability: -12; PrP 5UTR inh: -70; Bead autofluor: 8456; Sa ugtP lethal: ·; Mtb hypoxia rep: ·; Mtb hypoxia rep growth: ·; RN4220 kill: ·
COc1cc(NC(=O)CSc2ccccc2)c(C(=O)O)cc1OC is listed with BJeLR viability: 6; PrP 5UTR inh: -16; Bead autofluor: 2383; Sa ugtP lethal: 4; Mtb hypoxia rep: 10; Mtb hypoxia rep growth: 1; RN4220 kill: 4.3

Exported with two lines to a compound: part of the list above
Values run as follows: BJeLR viability | PrP 5UTR inh | Bead autofluor | Sa ugtP lethal | Mtb hypoxia rep | Mtb hypoxia rep growth | RN4220 kill
- COc1cc(NC(=O)CSc2ccccc2)c(C(=O)O)cc1OC
    6 | -16 | 2383 | 4 | 10 | 1 | 4.3
- CC1(C)OC(=O)C(=CNc2ccccc2)C(=O)O1
    -1 | -14 | 18882* | 1 | -1 | -1 | 4.7
- Cc1cc(C)c(C#N)c(SCS(=O)c2ccc(C(C)(C)C)cc2)n1 (configuration not stated)
    -2 | -24 | 8258 | 4 | 17 | 6 | 3.3
- CCOc1cc(Br)c(COc2ccc(C)nc2[N+](=O)[O-])cc1OCC
    -8 | -1 | 3582 | 54 | 2 | 4 | 3.0
- O=C(COC(=O)c1ccc(S(=O)(=O)N2CCCC2)cc1)Nc1ccccc1
    · | -6 | 3928 | 3 | 3 | 5 | 0.5
- CCn1c(N)c(C(=O)NC)sc1=S
    -7 | 2 | 3260 | 3 | 6 | 7 | 4.9
